CDC25B CDK2 inh = human CDC25B-CDK2/CyclinA binding inhibition. z-score (test concentration not listed). HTRF CDC25B-CDK2/CyclinA binding, anti-His/anti-Flag; stronger effect = higher value. P30305+P24941. 94,000 compounds, 0.72% hits. AID 1259370;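 further: score is relative to mean and SD of negative controls; strong numbers were not always called active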
TAR Tat displ = HIV-1 TAR-Tat binding disruption | z-score (no concentration beside the values) | HIV-1 TAR RNA, Tat peptide displacement FRET; stronger effect = higher value | 100,000 compounds, 0.6% hits;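 further: score is relative to mean and SD of negative controls; some compounds called inactive have numbers as strong as hits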
The depositor's hits bear a star; nt = no result given; & = joins results of further samples.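 How the source made its calls: active means z-score from 3 up in half or more of its runs; inactive means the rest.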

Under each structure – CDC25B CDK2 inh	TAR Tat displ
- COc1ccc(-c2csc(-c3c[nH]c4ccccc34)n2)cc1
→ 0.4	nt
- C=CCN1C(C(=O)c2ccccc2)=C(OC(=O)c2ccc(F)cc2)c2ccccc2S1(=O)=O
→ -0.49	nt
- COc1cc(CO)cc(Br)c1OCC(=O)O
→ -0.64	-1.2
- CCc1cc2c(N3CCc4ccccc43)ncnc2s1
→ nt	0.3
- CCCCSc1nc2c(c(=O)[nH]c(=O)n2C)n1CC(O)COc1cccc2ccccc12 (stereo unspecified)
→ 2.5	nt
- CCCCC(=O)N1c2ccccc2NC2=C(C(=O)CCC2)C1c1cccc(Br)c1 (stereo unspecified)
→ -1.2	0.9
- CSCC[C@@H](C(=O)Nc1ccc2c(c1)OCO2)N1Cc2ccccc2C1=O
→ -0.26	1.3
- CCc1ccc(Nc2cc(C)c3ccc(O)cc3n2)cc1
→ -0.95	0.97
- COc1cccc(C2N(c3ccccc3)C(=O)N3CCCN23)c1 (stereo unspecified)
→ nt	1.4
- Cn1ncc2c(NCCc3ccccc3)ncnc21
→ nt	1.7
- Cc1cn2c(=O)cc(CSc3nc4ccccc4s3)nc2s1
→ -0.97	1
- Cn1c(=O)c(=O)n(C)c2cc(S(=O)(=O)CCC(=O)Nc3ccc(Cl)cn3)ccc21
→ -0.29	2.6
- O=C(Nc1ccccc1)N1CCN(c2nc3cc(F)ccc3n3cccc23)CC1
→ nt	0.61
- C=CCNc1ncnc2c1cnn2-c1cccc(Cl)c1
→ nt	2.3
- CCCNC(=O)C1CCC(Cn2c(=O)c3sccc3n(CC(=O)NC(C)C)c2=O)CC1 (stereo unspecified)
→ nt	0.37
- Cc1noc2ncn(CC(=O)N3CCCC(C)C3)c(=O)c12 (stereo unspecified)
→ nt	1.1
- Cc1ccc(-c2nnc3ccc(SCc4cccnc4)nn23)cc1
→ -1.9	nt
- CC(=O)N1N=C(c2ccccc2Cl)OC1c1cc(C)nc2ccccc12 (stereo unspecified)
→ nt	0.48
- O=C(NCCCSCc1ccco1)Nc1cccc(Cl)c1
→ -1.6	2.1
- CCCc1nnc(NC(=O)c2nn(-c3ccc(Cl)cc3)ccc2=O)s1
→ -2	-0.4
- C=CCOc1ccc(Oc2nc(N(C)C)nc(N3CCCC3)n2)nn1
→ -0.9	-0.13
- CCO/C=C1\SC(=S)N(c2ccc(C(C)C)cc2)C1=O
→ -0.46	nt
- COc1ccc(-c2cc3c4c(C)n(-c5ccc(OC)cc5)c(C)c4c(C)nn3c2)cc1
→ -1.1	-1.6
- O=C(O)Cc1nn(Cc2ccc(Br)cc2F)c(=O)c2ccccc12
→ nt	1.5
- Cc1ccc(S(=O)(=O)NCCc2sc3nc(-c4ccc(F)cc4)nn3c2C)cc1
→ nt	0.42
- O=C(Nc1cccnc1Cl)c1c(O)c2ccccc2[nH]c1=O
→ -1.1	nt
- c1cnc2c(c1)ccc1cccnc12
→ -1.9&-0.38	nt
- CCn1c(NCc2cc(OC)ccc2OC)nc2ccccc21
→ -1.3	1.5
- c1ccc(CN2CCC3(CCCc4ccccc43)CC2)cc1
→ -0.4	nt
- Cc1cc(C)cc(NC2c3ncccc3C(=O)N2Cc2ccco2)c1 (stereo unspecified)
→ nt	0.96
- CC1CCN(C(=O)CCc2nnc3ccc(NCCCN4CCCC4=O)nn23)CC1
→ nt	1.1
- Fc1cc(F)cc(-c2noc3ncnc(NCc4ccc(Cl)cc4)c23)c1
→ nt	0.86
- CCOC(=O)c1nc(Nc2ccccn2)c2c(C)noc2n1
→ nt	0.91
- Cc1ncc(-c2ccc(S(=O)(=O)N3CCN(C(=O)c4ccco4)CC3)s2)o1
→ nt	1.9
- CCOc1ccc(-c2noc(CSc3nnc(-c4ccncc4)n3-c3ccc(OC)cc3)n2)cc1
→ 1.3	0.22
- NC(=O)CSc1nc2c(sc3ccccc32)c(=O)n1CCCC(=O)NC1CCCCC1
→ -0.91	nt
- O=C(c1ccccc1)c1ccc2c3c(cccc13)CC2
→ nt	2.1
- CCc1nn(C(CC)C(=O)NC2CCCCC2C)c(=O)c2cc3oc(C)cc3n12 (stereo unspecified)
→ -0.84	0.38
- CCCCc1nn2c(C)c(-c3ccc(OCC)cc3)nc2s1
→ -0.92	1.7
- CN1C(=O)C2(NN=C(c3cccc4ccccc34)S2)c2ccccc21 (stereo unspecified)
→ -0.68	nt
- COC(=O)c1c(NC(=O)C2=Cc3ccccc3OC=C2)sc2c1CCCC2
→ -1.8	-1.5
- CCSc1nc2c(c(=O)[nH]1)C(c1cc(F)ccc1F)CC(=O)N2 (stereo unspecified)
→ -2.5	-0.89
- Cc1cccc(C2CC(=O)Nc3nc(N)[nH]c(=O)c32)c1 (stereo unspecified)
→ -1.2	-1
- O=c1nc(SCc2ccccc2)c2c(n1C1CCCC1)CCC2
→ -0.42	0.35
- COc1ccc(Br)cc1C1SCCN1S(=O)(=O)c1cccc(C)c1 (stereo unspecified)
→ 0.2	2.9
- O=C(NC1CCS(=O)(=O)C1)c1c(-c2ccccc2)c(-c2ccccc2)n[nH]c1=O (stereo unspecified)
→ 0.79	0.84
- CCOC(=O)CSc1sc(C(=O)OCC)c(N)c1C(=O)N1CCOCC1
→ -1.3	1.3
- Clc1ccccc1-c1nn2c(Cn3cnc4ccccc43)nnc2s1
→ -1.1	2.4
- COc1ccc(NC(=O)CCS(=O)(=O)c2ccc3c(c2)oc(=O)n3C)cc1Cl
→ nt	0.98
- CCNC(=O)c1cn2c3c(ccc(Cl)c3c1=O)OCC2
→ nt	1.3
- CCN(c1ccc(OC)cc1)S(=O)(=O)c1ccc2c(c1)NC(=O)C(C)CS2 (stereo unspecified)
→ nt	0.4
- CCOC(=O)Nc1ccc(Sc2c(CC)c(C)nc3ncnn23)cc1
→ nt	0.15
- CCCS(=O)(=O)c1ncc(Cl)c(C(=O)N(Cc2ccc(C)cc2)C2CCS(=O)(=O)C2)n1 (stereo unspecified)
→ -2	3
- N/C(Cc1ccc([N+](=O)[O-])cc1)=N\OC(=O)c1cccs1
→ -2.6	nt
- C=CCn1c(NCc2ccc(OC)cc2O)nc2ccccc21
→ 0.77	nt
- CCn1cc(C2=NOC(C(=O)Nc3c(C)nn(Cc4ccc(F)cc4)c3C)C2)c(C)n1 (stereo unspecified)
→ -1.2	-0.39
- Cc1cc2nc(CSc3n[nH]c(-c4ccccc4F)n3)cc(=O)n2o1
→ nt	0.24
- COC(=O)c1cc(S(=O)(=O)NC2CCCCNC2=O)oc1C (stereo unspecified)
→ -0.74	nt
- CC1(C(=O)O)Cc2ccccc2C(=O)O1 (stereo unspecified)
→ -0.37	0.08
- COCCCNC(=O)c1cc2n(n1)CC(C)(C(=O)NC1CCCCC1)N(C)C2=O (stereo unspecified)
→ nt	0.79

The listing continues:
smiles,CDC25B CDK2 inh,TAR Tat displ
CCCOC(=O)C1=C(C)NC2=C(C(=O)CC(c3ccccc3)C2)C1c1ccccn1 (stereo unspecified),-0.47,0.95
CCOc1c(Cl)cc(C2C3=C(CCCC3=O)N(CC(=O)O)C3=C2C(=O)CCC3)cc1OC,-3.4,-2.8
COc1ccc(-n2nnnc2C2CCN(S(=O)(=O)c3cccc(Cl)c3)CC2)cc1,-0.77,0.68
Cc1c(C(=O)N2CCOCC2)oc2c1-c1nn(CC(=O)NC3CCCCC3C)cc1CC2 (stereo unspecified),nt,2.9
CCC(C)NC(=O)NCc1c(C)nn(CC)c1C (stereo unspecified),nt,0.44
Cc1nc(-c2cccs2)c(CC(=O)N2CCc3ccccc3C2)s1,0.15,-1.5
COc1ccc(-c2noc(COc3ccc(C)cc3C)n2)cc1OC,-1.1,-0.42
Cc1cc(-c2ccc(C)c(S(=O)(=O)N(C)Cc3ccco3)c2)on1,nt,0.29
COc1ccccc1C1OC(CSc2nc3ccccc3o2)=NN1C(C)=O (stereo unspecified),nt,3.2
Cc1ccc(-c2nc(NC(=O)CSc3nnc(C)s3)ns2)cc1,-0.23,0.55
O=C1CCCc2cc(S(=O)(=O)N3CCc4ccccc43)ccc2N1,nt,1.4
c1ccc2c(c1)ncn2Cc1nnc2sc(-c3ccc4c(c3)OCCO4)nn12,-0.94,1.9
CCOC(=O)C1=C(C)NC2=C(C(=O)CC(C)(C)C2)C1c1ccccc1OC(C)C (stereo unspecified),-0.48,1.9
CSc1ccc(C(=O)Nc2nc(-c3ccncc3)cs2)cc1,nt,1.6
Cc1cc(-c2ccc(C)c(S(=O)(=O)NCCCN(Cc3ccccc3)C(C)C)c2)on1,nt,1.2
COc1ccc(Nc2ncnc3onc(C)c23)cc1Cl,nt,0.48
CCOC(=O)N1CCN(c2c(N3CCN(CC)CC3)c(=O)c2=O)CC1,-2.7,1.1
CS(=O)(=O)c1cccc(C(=O)Nc2nc(-c3nc4ccccc4s3)cs2)c1,nt,0.3
O=C(c1c[nH]c(=O)n(-c2ccc(F)c(Cl)c2)c1=O)N1CCCc2ccccc21,nt,1.5
Cc1ccc2occ(C3Nc4ccccc4NC4=C3C(=O)CC(c3ccccc3Cl)C4)c(=O)c2c1 (stereo unspecified),-0.3,1.5
Cc1nnc(NCC2CCCCC2)c2c1nnn2Cc1ccc(F)cc1,-0.28,1.7
O=[N+]([O-])c1cccc(-c2c[nH]c(=S)[nH]2)c1,-1.1,nt
CC(C)CCn1c(C2CC(=O)N(c3ccc(F)cc3)C2)nc2ccccc21 (stereo unspecified),-0.4,1.4
CCOC(=O)c1c(C)oc2nc(C)nc(N(CC(C)C)CC(C)C)c12,nt,-0.22
Cc1nn(C)c2c1c(C(F)(F)F)cc(=O)n2CC(=O)N1CCCCC1,nt,0.32
CN1CCN(c2nnc(-c3ccc(Cl)cc3)c3ccccc23)CC1,-1.3,1.3
CCN(CC)S(=O)(=O)c1ccc2c(c1)CC(C(=O)NCCN1CCOCC1)N2C(C)=O (stereo unspecified),nt,0.83
CCOc1c(C(=O)OC)sc2ccc(N)cc12,7.7*,-1.9
CCN(CC)S(=O)(=O)c1ccc(NC(=O)CN2C(=O)c3ccccc3S2(=O)=O)cc1,-0.27,nt
O=C1Cc2cc(S(=O)(=O)NC3CC3)cc3c2N1CCC3,nt,1.1
O=C(CSc1nccc(-c2cccs2)n1)Nc1ccc(F)c(Cl)c1,-1,nt
O=c1c2nccnc2nc(SCc2ccccc2F)n1Cc1ccco1,-0.37,1.7
COc1cc2[nH]c(Sc3ccc(Cl)cc3)c([N+](=O)[O-])c2cc1OC,-0.85,0.81
O=[N+]([O-])c1ccc(Sc2nnc(-c3cccc(Cl)c3)o2)nc1,-0.18,1.1
O=C1CCCN1CCCNc1nc2c(S(=O)(=O)c3ccc(Cl)cc3)nnn2c2ccsc12,nt,-0.95
COc1ccc(S(=O)(=O)N(CCS(=O)(=O)N2CCNCC2)C2CC2)cc1,nt,2
O=C(CCCc1nc(-c2cccs2)no1)NC1CCCC1,-0.52,1.2
CCCNc1nc(NCCOC)nc2c1cnn2C,nt,1.2
Cc1nc(S(=O)(=O)Nc2cccc(Cl)c2)cn1C,nt,2.1
COc1cccc(N2C(=O)C3CCCN3C2c2cccs2)c1 (stereo unspecified),-0.53,-0.88
O=C(O)CC1SC(c2cccc(-n3cccc3)c2)=NC1=O (stereo unspecified),-0.58,nt
Cc1c(C(=O)CN2CCN(C(=O)NC3CCCCC3)CC2)c2ccccc2n1C,nt,-0.07
Cc1ccc(CNc2c(-c3ccc(C)c(C)c3)c(=O)c2=O)cc1,nt,1.3
O=C1CC(c2ccc(F)cc2)Cc2nc(N3CCc4ccccc43)ncc21 (stereo unspecified),-0.72,-0.82
O=C(CCc1nnc2ccc(NCCCN3CCCC3=O)nn12)NC1CCCC1,nt,2.3
Cn1c(=O)cc(SCC(=O)N2CCN(C(=O)c3ccco3)CC2)c2ccccc21,-1.8,nt
O=C(CC1Sc2ncnn2C1=O)Nc1ccc(Br)cc1 (stereo unspecified),-1.5,nt
O=C(Cn1ncc2c1-c1ccccc1OC2)NCC1(c2ccccc2)CCCC1,-1.3,-0.47
O=C1C(c2ccccc2)N=C2c3ccccc3N=C(SCc3cc(=O)n4cc(Cl)ccc4n3)N12 (stereo unspecified),-1.7,-0.06

By substructure, the entries above with a furan ring, fused or not.
smiles,CDC25B CDK2 inh,TAR Tat displ
O=C(NCCCSCc1ccco1)Nc1cccc(Cl)c1,-1.6,2.1
Cc1cc(C)cc(NC2c3ncccc3C(=O)N2Cc2ccco2)c1 (stereo unspecified),nt,0.96
Cc1ncc(-c2ccc(S(=O)(=O)N3CCN(C(=O)c4ccco4)CC3)s2)o1,nt,1.9
CCc1nn(C(CC)C(=O)NC2CCCCC2C)c(=O)c2cc3oc(C)cc3n12 (stereo unspecified),-0.84,0.38
COC(=O)c1cc(S(=O)(=O)NC2CCCCNC2=O)oc1C (stereo unspecified),-0.74,nt
Cc1c(C(=O)N2CCOCC2)oc2c1-c1nn(CC(=O)NC3CCCCC3C)cc1CC2 (stereo unspecified),nt,2.9
Cc1cc(-c2ccc(C)c(S(=O)(=O)N(C)Cc3ccco3)c2)on1,nt,0.29
CCOC(=O)c1c(C)oc2nc(C)nc(N(CC(C)C)CC(C)C)c12,nt,-0.22
O=c1c2nccnc2nc(SCc2ccccc2F)n1Cc1ccco1,-0.37,1.7
Cn1c(=O)cc(SCC(=O)N2CCN(C(=O)c3ccco3)CC2)c2ccccc21,-1.8,nt

Source: PubChem
